# TRPV1 potentiator: HTS Assay for Compounds that Act as Potentiators of the Vanilloid Receptor 1. TRPV1-expressing cells, Fluo-8 calcium influx, capsaicin EC20 potentiation; host cell line not named in the record; control for the full effect not named in the record. Transient receptor potential cation channel subfamily V member 1 (Homo sapiens), Q8NER1. potentiation, % at 8.33 µM. hit rate 0.02% among 320,000; active means potentiation above 80%; inconclusive means 30% to 80%; inactive means below 30%; further: 0% is about no effect
# Target sequence (Q8NER1 whole entry, looked up): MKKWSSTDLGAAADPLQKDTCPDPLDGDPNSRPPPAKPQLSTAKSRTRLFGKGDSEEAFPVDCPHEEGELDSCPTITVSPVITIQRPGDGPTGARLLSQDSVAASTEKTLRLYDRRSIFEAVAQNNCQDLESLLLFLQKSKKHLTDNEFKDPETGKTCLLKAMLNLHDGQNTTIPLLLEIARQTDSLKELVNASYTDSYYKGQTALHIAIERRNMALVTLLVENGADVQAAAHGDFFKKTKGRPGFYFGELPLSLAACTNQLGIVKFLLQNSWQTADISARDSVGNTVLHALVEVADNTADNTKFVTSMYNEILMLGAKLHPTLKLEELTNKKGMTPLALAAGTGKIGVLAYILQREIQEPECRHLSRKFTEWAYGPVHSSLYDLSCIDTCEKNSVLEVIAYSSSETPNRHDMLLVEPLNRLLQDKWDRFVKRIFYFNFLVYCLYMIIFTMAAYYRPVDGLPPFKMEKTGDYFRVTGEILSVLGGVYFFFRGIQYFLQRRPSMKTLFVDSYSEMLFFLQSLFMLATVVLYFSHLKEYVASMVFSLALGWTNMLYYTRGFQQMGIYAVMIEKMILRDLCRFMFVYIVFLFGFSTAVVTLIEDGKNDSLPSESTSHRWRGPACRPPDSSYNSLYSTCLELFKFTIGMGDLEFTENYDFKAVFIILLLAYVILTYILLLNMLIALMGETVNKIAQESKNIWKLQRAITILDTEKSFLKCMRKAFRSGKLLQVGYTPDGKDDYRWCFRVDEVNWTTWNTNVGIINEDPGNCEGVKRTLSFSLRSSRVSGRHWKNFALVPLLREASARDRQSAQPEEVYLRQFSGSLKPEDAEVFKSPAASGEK
#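 Cells expressing TRPV1 were dye-loaded with Fluo-8 and read kinetically: 10 s baseline, 3 min after compound (agonist portion), then 2 min after EC20 capsaicin (allosteric enhancer portion). Calcium-bound dye fluorescence at 480/520 nm.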
# PINK1 expr mod: A Quantitative High throughput Screen to Identify Chemical Modulators of PINK1 Expression | hit rate 0.2% among 410,000 | Potency, µM (series often up to 76.6 µM), for the others: at the highest dose activation (PINK1 increase), usual class: activators | PINK1 immunofluorescence, high-content cytometry, 24 h | AID 624263, 2012; active = well fitted activation curve with a large enough effect; inconclusive = small, poorly fitted or top-dose-only effect; inactive = flat fitted curve, though single readings scatter; cell line not stated here;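 further: potency means the concentration at half of the fitted maximal effect; % of control where 0% means no effect; nearly all actives have a fitted effect of over 65% in size; a mitochondrial uncoupler was the plate control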
#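 Fluorescence from anti-PINK1 antibody, together with nuclear and cell stains, was scanned on a laser-scanning cytometer. Before staining, stable-line cells were incubated 24 hours with compounds at 5 concentrations; primary antibody 12 h at 10 degrees C.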
# ClpP mod: qHTS Assay for Activators of ClpP. hit rate 1.9% among 340,000. purified B. subtilis ClpP, FRET peptide cleavage, 20 min. ATP-dependent Clp protease proteolytic subunit (Bacillus subtilis (strain 168)), P80244. Potency, µM (series often up to 57.5 µM), inactives show top-dose activity change, negative = active; active = well fitted falling curve with a large enough effect; inconclusive = small, poorly fitted or top-dose-only effect; inactive = no such curve, though single readings can be large or run the other way; further: potency means the concentration at half of the fitted maximal effect; the source files actives as falling curves though it sought activators and does not explain the sign; nearly all actives have a fitted effect of over 65% in size; many hits overshoot -100%
# Target sequence (P80244 whole entry, looked up): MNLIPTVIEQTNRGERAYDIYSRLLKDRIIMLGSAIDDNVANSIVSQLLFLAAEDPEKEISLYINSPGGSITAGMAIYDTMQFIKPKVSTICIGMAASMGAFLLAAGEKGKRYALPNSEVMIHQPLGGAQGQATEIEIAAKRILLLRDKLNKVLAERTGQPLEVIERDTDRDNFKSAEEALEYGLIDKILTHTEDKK
#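 Purified B. subtilis ClpP, 10 microg/mL final in Tris/HCl pH8 with KCl, BSA, glycerol and Tween-20, cleaved an Abz/nitrotyrosine-quenched decapeptide. Fluorescence (ex 320, em 430) was read at 0 and 20 min at room temperature. Delta was normalized to 5.8 microM ADEP and DMSO/no-enzyme controls.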
# Sfp inh: qHTS Assay for Inhibitors of Bacillus subtilis Sfp phosphopantetheinyl transferase (PPTase). 4'-phosphopantetheinyl transferase ffp (Bacillus subtilis), Q9F4F7. Biochemical Sfp PPTase activity, qHTS. Potency, µM, for the others: max response, negative = inhibition, most hits filed as inhibitors. hit rate 3.5% among 310,000. AID 1490, 2009; active means well fitted inhibition curve with a large enough effect; inconclusive means small, poorly fitted or top-dose-only effect, or another doubt; inactive means no such curve, though single readings can be large or run the other way;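 further: the enzyme is Sfp with the accession as filed and its product quenches rhodamine fluorescence; potency means the concentration at half of the fitted maximal effect; 0% = enzyme reaction without inhibitor and -100% = no enzyme wells; top concentration of the series not given in the record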
#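 Step 1, compound plus 15 nM Sfp-PPTase, 15 min, room temperature. Step 2, add rhodamine-CoA (5 uM) and BHQ-2-YbbR (12.5 uM). Step 3, read 525/598 nm fluorescence at 0 and 30 min.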
# TRPML1 inh: qHTS for Inhibitors of the Human Mucolipin Transient Receptor Potential 1 (TRPML1); hit rate 0.02% among 390,000; activity change, negative = inhibition, % (concentration not given with the values); TRPML1-inducible cells, Ca2+ dye fluorescence, FDSS; active compounds read low; inhibition of EC80 agonist-evoked calcium signal; Mucolipin-1 (Homo sapiens), Q9GZU1; in the data active means activity change below about -50%; inconclusive means about -30% to -50%; inactive means above about -30%;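 further: stimulus is agonist 54-4 at its EC80 concentration; on the % scale 0 is the no-effect control and ±100 the full control effect; the text of the record puts the active cut at -80%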
#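 Calcium fluorescence in TRPML1-DL cells induced overnight with Tet: a 110 s read after compound pin addition, then a 110 s antagonist read after challenge with 54-4 at 4 uM final (EC80).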
# TRPML1 agonist: qHTS for Agonists of the Human Mucolipin Transient Receptor Potential 1 (TRPML1); Mucolipin-1 (Homo sapiens), Q9GZU1; TRPML1-expressing cells, Ca2+ dye fluorescence, FDSS; host cell line not named in the record; reference of the full effect not given here; activation, % (concentration not given with the values); hit rate 0.12% among 410,000; in the data active = activation above about 50%; inconclusive = about 30% to 50%; inactive = below about 30%; further: 0% is about no effect; the text of the record puts the active cut at 80%
#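 Kinetic FDSS Ca2+ read in Tet-induced TRPML1-DL cells (ABD Ca8 dye plus quencher, 45-90 min RT loading): baseline, then compound, then 110 s agonist window; EC80 agonist 54-4 at 4uM final added afterwards for a 110 s antagonist window.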
# Menin-MLL FL inh: qHTS Assay for Inhibitors Targeting the Menin-MLL Interaction in MLL Related Leukemias: Competition With Fluorescein Labeled MLL-derived Peptide; Fluorescence polarization, fluorescein-MLL peptide displacement from menin; FP activity change, % at 61.4 µM; 290,000 tested, under 10 active; AID 1766, 2009; inconclusive = falling polarisation curve, or a change in total fluorescence; inactive = total fluorescence flat and polarisation flat or rising; no compound was filed as active; the % refers to the polarisation; negative = inhibition;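 further: % of control where 0% means no effect; inhibitors lower the polarisation; unlabelled MLL peptide was the positive control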
# * = called active by the depositor; ? = inconclusive; nt = not tested or not shown; [ ] = another dose, or the depositor's remark.
SMILES,TRPV1 potentiator,PINK1 expr mod,ClpP mod,Sfp inh,TRPML1 inh,TRPML1 agonist,Menin-MLL FL inh
COC(=O)C1CCN(C(=O)C2CCC(=O)N(CCc3cccc(F)c3)C2)CC1 (stereo not given),5,-1.8%,-2.1%,6%,-11,-0.5,nt
C=CCNC(=O)C1CC(=O)N(c2ccc(OCc3ccccc3Cl)cc2)C1 (stereo not given),-9,0.0%,nt,-13%,6,-0.2,3.7
Cc1ccccc1NC(=S)N(CCCN1CCOCC1)Cc1ccccn1,3,0.8%,-2.7%,21%,5,0.6,0.2
COc1ccc2[nH]cc(CCNc3ccnc(-c4c(C)noc4C)n3)c2c1,nt,-0.2%,nt,11%,nt,nt,-1.4
Cc1csc(NC(=O)c2sccc2C)n1,19,1.2%,nt,12%,-21,1.0,-3.2
O=C1c2ccccc2C(c2nnnn2C2CCCCC2)N1CCc1ccc(O)cc1 (stereo not given),nt,0.1%,-1.0%,nt,nt,-0.6,nt
C[C@@H]1CN([C@@H](C)CO)C(=O)c2cc(-c3ccncc3)cnc2O[C@H]1CN(C)C(=O)c1cccc(F)c1,nt,1.7%,0.9%,nt,3,-0.4,nt
c1ccc2c(c1)CCc1c-2nc2ccccc2c1N1CCOCC1,-4,2.7%,-3.8%,-4%,-16,2.5,-12
COC(=O)N/N=C/c1ccc(/C=N/NC(=O)OC)cc1,-12,0.6%,nt,7%,-3,-0.1,1.3
COc1ccc(N2CCN(C(=O)c3cccc(-n4c(C)nc5cccnc54)c3)CC2)cc1,nt,-0.2%,0.4%,nt,-5,1.4,nt
O=C(NCCCN=C1NS(=O)(=O)c2ccccc21)c1ccc(S(=O)(=O)N2CCCCC2)cc1,-6,16%[38.3 µM],-0.8%,12%,-11,-0.2,0.6
COc1ccc(-c2noc(CCC(=O)NCc3ccc(C)cc3)n2)cc1,nt,4.8%,-0.6%,nt,1,2.0,nt
COc1cccc(C(=O)N2CCC[C@H]2C(=O)N2CCC[C@H]2C(=O)NCc2ccncc2)c1,nt,0.7%,1.3%,nt,nt,-0.3,nt
COc1ccc(-c2nc3oc4cc(OC)ccc4c(=O)c3c(=O)n2Cc2ccco2)cc1,8,?,-11%,25µM*,4,-0.9,0.6
O=C(Nc1nc2ccccc2s1)C1CC(=O)N(c2ccc(Cl)cc2)C1 (stereo not given),-15,0.8%,-0.1%,6%,13,-0.5,2.8

# Filtered by structure: the compounds so far containing two or more sulfur atoms (two)
SMILES,TRPV1 potentiator,PINK1 expr mod,ClpP mod,Sfp inh,TRPML1 inh,TRPML1 agonist,Menin-MLL FL inh
Cc1csc(NC(=O)c2sccc2C)n1,19,1.2%,nt,12%,-21,1.0,-3.2
O=C(NCCCN=C1NS(=O)(=O)c2ccccc21)c1ccc(S(=O)(=O)N2CCCCC2)cc1,-6,16%[38.3 µM],-0.8%,12%,-11,-0.2,0.6

# (list continues)
SMILES,TRPV1 potentiator,PINK1 expr mod,ClpP mod,Sfp inh,TRPML1 inh,TRPML1 agonist,Menin-MLL FL inh
COc1ccc(CNC(=O)CN(C(=O)c2csnn2)c2cccc3ccccc23)cc1,13,-2.8%,nt,17%,24,-0.5,-5.7
CCCc1nnc(NC(=O)c2cccc(OC)c2)s1,6,2.9%,-3.5%,-4%,-15,-0.4,1.5
C=CCN1C(=O)c2ccc(C(=O)Nc3ccccn3)cc2C1=O,0,1.3%,-2.5%,nt,23,0.4,nt
COc1ccccc1C1CCN(C(=O)c2ccccc2)CC1,-16,1.6%,-0.1%,15%,nt,nt,2.8
COc1ccc(S(=O)(=O)NC(C)C(=O)O)cc1 (stereo not given),-4,-5.5%[38.3 µM],-0.9%,5%,12,0.7,0.9
CCOCCCNC(=O)C1CCN(S(=O)(=O)c2cc(Br)cc3c2N(C(=O)CC)CC3)CC1,-3,-0.7%,nt,9%,16,1.4,0.6
CC/C(C)=N/NC(=O)c1[nH]c2ccc(C)cc2c1-c1ccccc1,17,4.3%,nt,-23%,-11,-0.3,4.5
COc1cc(C(=O)NCc2nnc(SCC(=O)N3CCc4ccccc43)o2)cc(OC)c1OC,?,0.0%,-2.1%,22%,3,-0.2,3.0
COc1ccc(-c2ccc(-c3cc(=O)oc4c(C(C)C)ccc(C)c34)cc2)cc1,nt,0.2%,-15%,-16%,-11,0.7,9.1
CCCOc1ccc2c(CC)cc(=O)oc2c1C,8,-1.6%,?,1%,-17,1.4,10
CCc1nc2ccc(C(=O)NCCc3ccccn3)cn2c1N(CC)Cc1cccc(Br)c1,nt,-0.7%,-3.2%,nt,nt,-0.9,nt
CC(=O)c1ccc(S(=O)(=O)Nc2ccc(C(=O)N(C)CC(=O)Nc3cccc(C)c3C)cc2)cc1,-24,-0.1%,0.0%,nt,-5,-0.4,nt
CCOc1ccc(CC(=O)NNC(=S)Nc2ccc(OC)c(OC)c2)cc1,5,0.8%,1.3%,7%,-8,-0.6,-3.6
C1=CC2C3C=CC(C3)C2C1 (stereo not given),-3,1.5%,-1.6%,nt,1,-0.2,nt
Cc1ccc(NS(=O)(=O)c2ccc(C(=O)NC3CCN(Cc4ccccc4)CC3)cc2)cc1,nt,-3.9%,-2.5%,nt,7,3.3,nt
O=C(O)CCCn1cc(NC(=O)COc2ccc(F)cc2)cn1,-9,0.1%,nt,8%,3,1.2,-1.4
O=C1c2ccccc2[C@@H]2CC(O)C(O)CCN12 (stereo not given in full),nt,0.1%,2.1%,nt,7,0.9,nt
O=C(c1ccccc1)c1ccccc1N/C=C/c1nnnn1-c1ccccc1,nt,-1.8%,0.9%,3%,10,-0.5,1.6
CCN(CC)CCCNC(=O)Cn1ccc2ccccc2c1=O,?,-0.3%,-2.8%,13%,4,-0.2,-3.8
O=C1C(Nc2ccccc2)=C2CCCC=C2N1c1ccccc1,16,3.9%,-5.7%,15%,8,1.2,0.9
CC1CC(C)CN(S(=O)(=O)c2cc3c4c(c2)C(C)C(=O)N4CCC3)C1 (stereo not given),1,1.5%,1.0%,-1%,-15,-0.6,nt
COCCOC(=O)c1[nH]c2c(c1C)C(=O)CC(c1ccc(OC)c(OC)c1)C2 (stereo not given),-11,0.7%,-0.5%,13%,-6,-0.2,-1.0
CCNc1nc(NC(C)C)nc(N(C#N)CCOc2ccc(Cl)cc2Cl)n1,8,3.5%,0.3%,-2%,9,2.3,5.1
COc1ccc(CN(CC(=O)NCc2ccccc2)C(=O)CCC(=O)Nc2ccccn2)cc1,4,-1.6%,nt,14%,16,-0.1,-6.4
O=C(Nc1ccc2nn(-c3ccccc3)nc2c1)c1ccc(-c2cccc(Cl)c2)o1,nt,9.1%,59%,nt,30,0.8,nt
Cc1ccc(-n2ncc3c(=O)n(CC(N)=O)cnc32)cc1,-5,0.0%,-9.3%,12%,nt,nt,2.1
COc1cc(OC)c(OC)cc1CNCc1ccco1,-13,0.7%,-5.7%,-14%,12,-0.4,23
CCc1ccc(CNC(=O)C2CCN(S(=O)(=O)N3CCC4(CC3)OCCO4)CC2)cc1,5,-1.6%,0.6%,17%,5,0.4,-0.2
COc1ccc(NC(=O)Nc2ccc3c(c2)C(=O)N([C@H](C)CO)C[C@H](C)[C@@H](CN(C)C(=O)Nc2ccc(OC)cc2)O3)cc1,nt,-1.2%,3.9%,nt,11,-0.8,nt
C/C(=N\OCC(=O)Nc1ccccc1C(=O)O)c1cccs1,18,0.4%,-5.3%,-27%,4,-0.1,-3.6
CCOC(=O)N1CCC(N2CC34C=CC(O3)C(C(=O)Nc3ccc(OCC)cc3)C4C2=O)CC1 (stereo not given),nt,0.6%,-5.4%,19%,-12,1.4,2.7
Cc1noc(C)c1COc1ccccc1C(=O)NCCc1ccccc1,-15,0.8%,-2.0%,nt,12,-0.3,nt
N=c1sccn1CC(=O)Nc1ccc2c(c1)CCC2,-1,-2.7%,-0.3%,3%,29,-0.2,-1.3
COc1ccc(CNC(=O)COC(=O)Cc2ccc(Br)cc2)cc1,nt,-0.3%,nt,nt,18,3.9,nt
CCCCOC(=O)c1cc(=O)[nH]c2ccc(C)cc12,2,-1.1%,nt,6%,5,0.9,0.5
COc1ccc(-n2nc(C(=O)NCC(=O)Nc3cc(OC)c(OC)c(OC)c3)c3ccccc3c2=O)cc1Cl,?,1.4%,nt,2%,4,0.0,2.1
CC(C)(C)c1ccc(S(=O)(=O)NC(=O)C2(C)CCN2C(=O)C2(c3ccccc3)CC2)cc1 (stereo not given),nt,1.9%,1.8%,nt,nt,0.1,nt
CCOC(=O)C(NC(C)=O)(N1CCOCC1)C(F)(F)F (stereo not given),-9,nt,nt,22%,nt,nt,-3.6
COc1ccc(NCC(=O)Nc2ccc(C#N)cc2)cc1Cl,11,2.1%,0.6%,3%,6,-0.3,0.4
COc1ccc(CCNC(=O)CC(=O)N/N=C/c2ccc(Br)cc2)cc1OC,4,0.0%,-1.2%,18%,-8,0.0,-0.9
CCOC(=O)c1sc2nc3n(c(=O)c2c1C)CCC(C)CC3 (stereo not given),-19,nt,-1.8%,22µM*,63,1.0,1.8
CCOc1ccc(OCCC(=O)N(CCC2=CCCCC2)c2c(N)n(Cc3ccccc3)c(=O)[nH]c2=O)cc1,5,6.4%,-4.5%,nt,28,-0.1,nt
CC(=O)n1cc(C2C(=O)CC(C)(C)CC2=O)c2ccccc21,17,0.0%,-1.4%,7%,2,-0.5,3.0
C/C(=N\NC(=O)Cn1cc([N+](=O)[O-])cn1)c1ccc(O)cc1,18,-0.6%,0.7%,4%,-5,-1.0,2.9

# An unsorted share of the library. About 4.4% of those tested had a hit in this group.
